# Source: PubChem (Fisher Drug Discovery Resource Center)
# NPYLR7 ag – activates Aedes aegypti NPYLR7 receptor. HEK293T NPYLR7/Galpha15, GCaMP6s calcium fluorescence. activation, % at 10 µM. 0.15% of 270,000 active; in the data active = activation above about 40%;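 also: 0% = vehicle and 100% = reference agonist at the receptor; some compounds past the cut are filed as inactive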
# NPYLR7 ag max-min – also measured in NPYLR7 ag; calls as there; activation, %; measured here: Max-Min RFU normalised activation; some inactives read as strong as hits;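 span of the calcium signal over five minutes; 0% = vehicle and 100% = native peptide agonist; compound fluorescence can raise it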
# * = called active by the depositor. The list is partial; the hit share may differ from the screen's.
# Start of the listing, in advance (two entries):
Compound	NPYLR7 ag	NPYLR7 ag max-min
COc1ccc(N2CCN(C(=O)c3cc(-c4cccc(OC)c4)n4nc(-c5ccccc5)cc4n3)CC2)cc1	11.7	14.1
CCOC(=O)C1(C)CCCCCN1C(=O)c1ccc2c(c1)CCO2 (stereo not drawn)	-2.5	-7.2

# This part in full, previewed entries included:
Compound	NPYLR7 ag	NPYLR7 ag max-min
COc1ccc(N2CCN(C(=O)c3cc(-c4cccc(OC)c4)n4nc(-c5ccccc5)cc4n3)CC2)cc1	11.7	14.1
CCOC(=O)C1(C)CCCCCN1C(=O)c1ccc2c(c1)CCO2 (stereo not drawn)	-2.5	-7.2
O=C(Nc1ccc(C(=O)N(C2CC2)C2CCc3ccccc32)cc1)C1CC1 (stereo not drawn)	-1.0	-2.4
CC(=O)c1cc(C(=O)NC(C)c2cnn(-c3ccccn3)c2C)cs1 (stereo not drawn)	-5.5	-4.6
CCCS(=O)(=O)C(C)C(=O)OC1CC2CC(C1C)C2(C)C (stereo not drawn)	0.2	-1.4
C=CCn1c(SCC(=O)c2ccccc2)nc2ccccc2c1=O	-5.0	-7.8
CC1CCCC(C)C1NC(=O)N1CCC(N2CCCC2)C1 (stereo not drawn)	4.1	0.7
CN(Cc1cccc(O)c1)C(=O)C1CC2(CCNCC2)CN1 (stereo not drawn)	13.8	5.4
O=[N+]([O-])c1cc2c(c(CSc3nnc4ccccn34)c1)OCOC2	18.8	18.1
CCN1CCN(c2c(CN(C(=O)c3ccc(Cl)cc3Cl)C3CC3)c(C)nn2-c2ccccc2)CC1	4.0	16.6
CC(C)Oc1ccc(C(O)=C2C(=O)C(=O)N(CCCn3ccnc3)C2c2cccc([N+](=O)[O-])c2)cc1 (stereo not drawn)	11.8	11.8
CCOC(=O)CSc1nnc(NC(=O)C2CCC2)s1	-2.1	3.8
CCC1CCCCN1C(=S)NC1CCCCC1 (stereo not drawn)	6.6	8.2
CNC(=O)CCNC(=O)c1cnn(-c2ccc(Cl)cc2Cl)c1C1CC1	7.1	3.0
O=S(=O)(Nc1ccccc1Cl)c1cccnc1	14.8	10.6
CNC(=O)CN(C(=O)c1csc(-c2cccs2)n1)[C@@H]1C[C@@H]2CO[C@H](C(C)C)C[C@@H]2C1	16.1	12.9
NC(=O)c1c(NC(=O)CSc2ncnc3sc4c(c23)CCCC4)sc2c1CCC2	7.9	2.0
CCc1nc2ccc(C(=O)NCCc3ccccn3)cn2c1N(CCC(C)C)CCN(C)C	-5.6	-10.1
COCCN(CC(=O)Nc1nc(CC(=O)Nc2ccc(C)c(C)c2)cs1)C(=O)c1ccc(Cl)cc1Cl	-6.2	-6.0
Cc1cc(C(=O)N2CCC(N3CCCC3=O)CC2)c2cccc(C)c2n1	2.5	2.4
CC(=O)c1cccc(CN2CCC(CO)(CCOc3ccccc3)CC2)c1	-10.4	-13.8
OCC1CN=C(c2ncccn2)NO1 (stereo not drawn)	1.1	-1.4
Fc1ccc(-c2nc(COc3c(Cl)cccc3Cl)no2)cc1	5.7	0.2
O=C(CSc1ccc(-c2ccc3c(c2)OCO3)nn1)N1CCCCCC1	-2.6	-2.8
CSc1ncc(CN2CCC(CCC(=O)N3CCN(c4ccccc4)CC3)CC2)cn1	11.1	6.5
CCOc1cc(CN2CCCn3cccc3C2c2ccc(F)cc2)ccc1O (stereo not drawn)	2.8	13.6
Cc1cccc2c(=O)n(CC(=O)NCCc3cccc(F)c3)cnc12	4.3	1.0
O=C(CSc1ncnc2c1nnn2Cc1ccc(F)cc1)NCc1ccc2c(c1)OCO2	10.1	18.2
COc1ccccc1NC(=O)Cn1cc(-c2nnc(-c3ccccc3)o2)c2ccccc21	3.1	5.2
CC1(C)CC(=O)CC(=NNC(=O)COc2ccccc2)C1	-0.6	-1.2
CCCCOC(=O)c1ccc(NC(=O)c2cccn(OCc3ccccc3F)c2=O)cc1	0.0	-1.2
CCOC(=O)c1oc2cc(OCC)ccc2c(=O)c1-c1ccc(Br)cc1	23.8	11.8
Cc1c(C)n2c3c(=O)n(CCCO)c(=O)n(C)c3nc2n1-c1ccccc1Cl	1.6	-3.4
COc1ccc(CCN(C)C(=O)C(C)(C)c2ccc(Cl)cc2)cc1OC	-4.4	-13.8
O=S(=O)(NCC1CCCO1)c1ccc2ccccc2c1 (stereo not drawn)	6.2	2.3
N#CC(=C1CCCCC1)c1nc(-c2c[nH]c(C(=O)N3CCCC3)c2)cs1	-0.5	4.5
CC(C)c1cc(C(C)C)c(S(=O)(=O)n2ccnc2)c(C(C)C)c1	5.2	11.6
Cc1ccc(NC(=O)CN2CN(c3ccccc3)C3(CCN(S(=O)(=O)c4ccc5ccccc5c4)CC3)C2=O)cc1C	15.7	14.2
Cc1nc2ccc(C(=O)NCCCN3CCCC3=O)cn2c1N(C)C(=O)CCc1ccccc1	7.2	3.9
C/C=C/C(=O)N1CCC(n2nc(C(=O)OCC)cc2-c2ccc(F)cc2)CC1	1.6	-2.6
COCCNC(=O)c1coc(CN(Cc2ccccc2)Cc2ccco2)n1	-7.5	4.3
O=C1NC(c2ccccc2)C(=O)N(CC(=O)N2CCCC(Cc3ccc(F)cc3)C2)c2ccccc21 (stereo not drawn)	0.4	8.6
CC(C)C(C)NC(=O)Nc1ccc(-n2cncn2)c(F)c1 (stereo not drawn)	13.8	5.2
O=C(c1ccccc1OCc1ccccc1)N1CCOC2(CNCCOC2)C1 (stereo not drawn)	-5.1	-5.7
Cc1cccc(CSc2ccc3nnc(CCNS(=O)(=O)c4ccccc4)n3n2)c1	-17.6	-19.0
Cc1ccc(CNC(=O)CCC2CCCN(C(=O)c3cc(C4CC4)on3)C2)o1 (stereo not drawn)	19.7	2.6
COc1ccc(C=C2N=C(c3ccc(OC(F)F)cc3)OC2=O)cc1OC	2.5	3.3
O=C1CCC(C(=O)NCC(CO)Cc2cccs2)=NN1 (stereo not drawn)	5.9	4.3
Cc1ccc(NC(=O)Cn2nc(-c3cccs3)c3sc(N4CCOCC4)nc3c2=O)cc1	-3.1	-7.9
CC1CCc2c(sc(NC(=O)c3ccc(=O)[nH]n3)c2C(N)=O)C1 (stereo not drawn)	3.3	12.7
COCCNC(=O)CSc1nc2ccccc2c(=O)n1Cc1ccc(C)cc1	11.1	2.3
CC(=O)N1CCN(CC[C@H]2CNCC[C@H]2CC(=O)OC(C)(C)C)CC1	-7.5	-14.9
Cc1cc(C)c2oc(=O)n(C3CCN(C(=O)c4cc(C)nc(Cl)c4)CC3)c2c1	5.9	2.3
CC1CCCC(NN2CCN(C)CC2)C1 (stereo not drawn)	-9.8	-16.2
O=c1cc(CO)oc(C(Nc2ccccn2)c2cccc([N+](=O)[O-])c2)c1O (stereo not drawn)	20.7	19.3
CCCN(C(=O)c1cccc(C#N)c1)C(C)c1ccccc1Br (stereo not drawn)	6.5	5.0
O=C(CCS(=O)(=O)c1ccccc1)Nc1nnc(-c2ccccn2)o1	6.9	0.8
CNCC(=O)NCc1ccco1	-2.3	-2.9
CC(=O)Oc1c(-c2ccc(N)cc2)c(-c2ccc(F)cc2)nn1-c1cc(C)ccc1C	20.2	20.6
Cc1cc(C)c(-c2ccc(C3(O)CCNCC3)cc2)c(C)c1	9.2	-1.3

# Additional entries.
canonical_smiles	NPYLR7 ag	NPYLR7 ag max-min
CCCCn1c(C)c(C)n2c3c(=O)n(CC)c(=O)n(C)c3nc12	4.4	-2.2
CN(C)c1ccc(C(=O)NC2CC3CCC(C2)N3Cc2ccc3c(c2)OCO3)cc1 (stereo not drawn)	3.8	0.5
CCS(=O)(=O)CCSc1nc(C)cc(C)n1	0.6	-1.1
COc1cc(C)c(C(C)NC(=O)C(C)Oc2ccc(C(C)=O)cc2)cc1OC (stereo not drawn)	-3.6	-3.4
CN(Cc1ccccc1-n1cccn1)C(=O)c1cnn2ccn(C)c12	1.0	-3.3
C=CCN1C[C@@H]2C[C@@H](C(=O)O)N(C(=O)CC)c3cccc(c32)C1=O	1.0	14.0
CN1CCN2C[C@@H](NC(=O)c3cn4ccsc4n3)C[C@H]2C1	2.5	1.9
CCN(CC(O)COCc1ccco1)CC1CC(c2ccc(Cl)cc2)=NO1 (stereo not drawn)	9.7	15.4
Cc1ccc(C=CC(=O)N2CCN(C(=O)c3ccco3)CC2)o1	-0.8	-2.4
COc1c[nH]c(CN2CCOc3c(O)cc(-c4ccc(C)cc4)cc3C2)cc1=O	-8.6	-16.4
CC1CN(C(=O)c2ccc(Cl)c(Cl)c2)CCN1C(=O)OC(C)(C)C (stereo not drawn)	1.5	-0.5
COc1ccc(C2NC(=O)NC3=C2C(=O)N(CCC(C)C)C3)cc1 (stereo not drawn)	13.6	11.3
COC(=O)[C@@H](Cc1c[nH]c2ccccc12)NC(=O)CCC1CCCC1	-2.0	0.7
COc1cccc(CN(Cc2ccc(F)cc2)CC(O)COCc2ccco2)c1 (stereo not drawn)	-1.4	5.8
Cc1c(C(=O)NCc2cccc(Cl)c2)sc(=O)n1Cc1cccc(F)c1	11.1	9.5
COc1ccc(S(=O)(=O)NCCCn2ncccc2=O)cc1OC	17.9	18.6
Cc1cccc(COC(CN2CCN(S(=O)(=O)c3ccc(F)cc3F)CC2)c2ccc(Cl)cc2)c1 (stereo not drawn)	23.1	8.8
CN(C)C(=O)C(NC(=O)c1ccccc1C(F)(F)F)c1ccccc1 (stereo not drawn)	7.0	2.5
COC(=O)c1cc(-c2ccc(OC)cc2)n(-c2ccc(=O)[nH]n2)n1	1.0	-0.5
O=C(Nc1cccc(O)c1)c1cc2n(n1)C(C(F)(F)F)CC(c1cccs1)N2 (stereo not drawn)	10.9	7.6
Cc1cc(C)c(CSCc2csc(Cc3ccc(Cl)c(Cl)c3)n2)c(C)c1	-5.6	-15.2
CC(=O)c1cc(-c2ccccc2)n(CC(=O)O)c1C	-10.5	-17.6
Cc1cc(COc2ccccc2)oc1C(=O)N1CCCn2cncc2C1	21.4	15.3
CN(C)CC/C(=N/O)c1ccccc1	-12.4	-15.8

# One compound at a time (already shown). Values in the order: NPYLR7 ag | NPYLR7 ag max-min
# Results for COC(=O)[C@@H](Cc1c[nH]c2ccccc12)NC(=O)CCC1CCCC1 = -2.0 | 0.7
# Results for O=C1NC(c2ccccc2)C(=O)N(CC(=O)N2CCCC(Cc3ccc(F)cc3)C2)c2ccccc21 (stereo not drawn) = 0.4 | 8.6
# Results for C=CCn1c(SCC(=O)c2ccccc2)nc2ccccc2c1=O = -5.0 | -7.8
# Results for COCCNC(=O)CSc1nc2ccccc2c(=O)n1Cc1ccc(C)cc1 = 11.1 | 2.3

# Following part
canonical_smiles	NPYLR7 ag	NPYLR7 ag max-min
N#Cc1ccc(C(=O)N2CCOC(COc3ccc4c(c3)CCCC4)C2)c(F)c1 (stereo not drawn)	3.3	-1.4
Cc1ccc(/C=C/C2=NC(=C\c3cc(Br)cs3)/C(=O)O2)cc1	-1.2	-3.1
Cc1ccc(NC(=O)c2csc(CSc3nnc(-c4ccccc4Cl)n3-c3cccc(Cl)c3)n2)cc1	17.1	10.2
C=CCOCC(O)CN(Cc1ccc(OC)c(OC)c1)Cc1ccco1 (stereo not drawn)	14.0	21.6
Cc1cc(C(=O)N2CCOC(COc3ccc(Cl)c(C)c3)C2)cc(Cl)n1 (stereo not drawn)	3.4	-2.4
CCOC(=O)c1c(NC(=O)COC(=O)c2c(C)cc(=O)oc2C)sc(C(C)=O)c1C	2.0	4.0
CC(C)(C)NC(=O)NC(=O)CSc1nnc(-c2c[nH]c3ccccc23)n1C1CC1	0.9	18.9
COCCN(CC(=O)N(Cc1ccc2c(c1)OCO2)Cc1ccco1)C(=O)Nc1ccc(OC)cc1	-6.2	-4.8
CCn1c(=O)cc(C(C)C)c2ccc(OCC(=O)NCCc3ccccn3)cc21	18.3	11.7
COc1ccc(Nc2nnc(-c3cc4c(ccc5ccccc54)oc3=O)s2)c(OC)c1	0.6	1.9
COc1ccc(CN2CCNC(=O)C2CC(=O)NC2(c3ccccc3)CC2)cc1OC (stereo not drawn)	11.7	8.7
CCN1CCCC1CN(CC1CCN(CCOC)CC1)C(=O)c1nonc1C (stereo not drawn)	12.7	3.7
O=C1CSC(=NN=C2NC(=O)C(CC(=O)Nc3ccc(Br)cc3)S2)N1 (stereo not drawn)	3.4	13.0
Cc1ccc(-n2nc(C(C)(C)C)cc2NC(=O)CN(C)C(=O)c2ccc(F)cc2)c(C)c1	0.2	13.5
Cc1nn(-c2cccc(Cl)c2)c(Cl)c1/C=N\Nc1cccc([N+](=O)[O-])c1	-9.0	-17.5
O=C(NCC1(c2ccccc2)CCOCC1)C1CC(Cc2ccc3c(c2)OCO3)=NO1 (stereo not drawn)	5.4	2.0
CCCCNc1nc2c(-c3cccc(C)c3)nnn2c2ccccc12	6.8	5.1
Fc1ccc(C2CC(c3ccc(Cl)cc3)n3nc(C(F)(F)F)nc3N2)cc1 (stereo not drawn)	-1.4	-2.5
CCCc1cn(CC2CCN(C(=O)c3cnn(CCC)c3C)CC2)nn1	3.3	2.0
COc1cc(CNC(=O)c2ccc3cc[nH]c3c2)ccn1	10.2	2.6
Cc1nnc(Nc2cccc(Nc3nnc(C)c4ccccc34)c2)c2ccccc12	-10.3	-16.1
Cc1cc(NC(=O)CS(=O)(=O)c2cn(Cc3ccccc3Cl)c3ccccc23)no1	-0.1	17.3
COc1ccc(CN(C(=O)CCc2ccccc2)C(C)C)cc1OS(C)(=O)=O	7.8	9.5
COc1ccc(-n2c(=O)[nH]c3c(C(N)=O)nc(-c4cccs4)nc32)cc1	1.5	0.1
COCc1cc(N2CCOCC2)nc(SCc2ccc(C(=O)O)o2)n1	14.1	23.1
Cc1cccc2[nH]c(C3CCN(C(=O)c4cc5n(n4)CCCN(C)C5)CC3)nc12	8.7	6.6
COc1ccc(NC(=O)C(C)N2CCC(C(=O)N3CCOCC3)CC2)cc1Cl (stereo not drawn)	4.7	1.6
Cc1ccccc1NC(=O)Cn1cccc(-c2nc(-c3ccc(Cl)cc3)no2)c1=O	-0.8	-7.3
CC(C)C(=O)NC1CCC(CN(C)C(=O)C(C)C)CC1 (stereo not drawn)	-0.8	9.1
COc1cc(C(=O)c2cc3cc(Br)ccc3o2)cc(OC)c1OC	21.6	21.7
